DUX4 inh: inhibitors of DUX4-driven ZSCAN4 reporter expression, primary screen, 293T cells, Gaussia and Italica luciferase; 293T-iDUX4 ZSCAN4-Gaussia luciferase reporter, 24 h; active compounds read low; activity change, negative = inhibition, % (test concentration not listed); 0.8% of 37,000 active; AID 1224904, 2016;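 active = -10% or lower and over 25 points stronger than a control reporter; inconclusive = -10% or lower with a smaller gap; inactive = above -10%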;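 also: 0% = median of neutral control wells and -100% = median of positive control wells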
DUX4 inh difference: recorded beside DUX4 inh, whose call it bears; Gaussia minus Italica difference, %; measured here: selective DUX4 reporter inhibition;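 worked out from the two reporters; negative = selective loss of the DUX4 reporter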
DUX4 inh control: also measured in DUX4 inh; calls as there; activity change, negative = inhibition, %; measured here: Italica tet-on control reporter;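 0 = neutral control and -100 = positive control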
* hit, by the source's call; ? = inconclusive; nt = not tested or not shown. A portion of the library, so the mix of outcomes need not match the whole.

Molecule,DUX4 inh,DUX4 inh difference,DUX4 inh control
CN1C(=O)c2cc(NC(=O)c3cccc(C(F)(F)F)c3)ccc2OC[C@@H]2O[C@H](CC(=O)NCCN3CCCC3)CC[C@H]21,0,-6,5.7
COc1cccc(C(=O)Nc2ccc3c(c2)C(=O)N(C)[C@@H]2CC[C@@H](CC(=O)NCc4ccccc4F)O[C@H]2CO3)c1,?,nt,nt
CCN1[C@@H]2c3ccc(-c4cccnc4)c(=O)n3C[C@@H]2[C@@H](CO)[C@@H]1C(=O)NCc1ccccc1,?,nt,nt
C[C@@H]1CCCCO[C@H](CN(C)Cc2ccc3c(c2)OCO3)[C@@H](C)CN([C@@H](C)CO)C(=O)c2cc(NS(=O)(=O)c3cn(C)cn3)ccc2O1,-5,-3,-2.4
CS(=O)(=O)N1CCCCN2[C@@H](CO)[C@@H](c3ccc(Br)cc3)[C@@H]2C1,34,24,10
COc1ccc(NC(=O)N2C[C@H](O)COC[C@H]3O[C@H](CC(=O)NCc4ccccc4OC)CC[C@@H]32)cc1,6,1,5.0
O=C1C[C@@H](c2ccccc2)C(=O)N[C@H](c2ccccc2)C/C=C\C[C@H](c2ccccc2)N1,-2,-2,-0.4
C[C@H]1CC=CC[C@H](c2ccccc2)NC(=O)[C@H](Cc2ccccc2)N(C)C(=O)c2ccccc2O1 (mixture of isomers),2,-4,5.3

Next section
Molecule,DUX4 inh,DUX4 inh difference,DUX4 inh control
Cc1noc(C)c1NC(=O)N(C)C[C@@H]1OCc2ccccc2-c2c(n(C)c3ccccc23)C(=O)N([C@@H](C)CO)C[C@H]1C,7,10,-2.4
CO[C@@H](CN(C)Cc1cc(F)ccc1F)[C@@H](C)CN([C@H](C)CO)S(=O)(=O)c1ccc(Cl)cc1,-4,-4,0.7
COCC(=O)N1[C@@H](CO)[C@@H]2c3ccccc3NC[C@@H]21,7,6,1.6
CCCNC(=O)N(C)C[C@H]1Oc2cc(C#C[C@@H](C)O)ccc2S(=O)(=O)N([C@H](C)CO)C[C@H]1C,5,0,4.7
C[C@H](CO)N1C[C@H](C)[C@@H](CN(C)S(=O)(=O)c2ccccc2)Oc2ccc(NC(=O)C3CC3)cc2C1=O,-7,-3,-3.4
CCCC(=O)Nc1ccc2c(c1)C(=O)N(C)[C@H]1CC[C@H](CC(=O)NCc3cccc(F)c3)O[C@@H]1CO2,-1,-5,3.1
COc1cccc(CN2CCCCN3[C@H](CO)[C@@H](c4ccc(C#Cc5cccnc5)cc4)[C@@H]3C2)c1,?,nt,nt
COCC(=O)N1[C@H](CO)[C@H](c2ccc(C#Cc3ccccc3F)cc2)[C@@H]1C#N,2,0,2.4

By substructure: the compounds so far with fluorine (5)
Molecule,DUX4 inh,DUX4 inh difference,DUX4 inh control
CN1C(=O)c2cc(NC(=O)c3cccc(C(F)(F)F)c3)ccc2OC[C@@H]2O[C@H](CC(=O)NCCN3CCCC3)CC[C@H]21,0,-6,5.7
COc1cccc(C(=O)Nc2ccc3c(c2)C(=O)N(C)[C@@H]2CC[C@@H](CC(=O)NCc4ccccc4F)O[C@H]2CO3)c1,?,nt,nt
CO[C@@H](CN(C)Cc1cc(F)ccc1F)[C@@H](C)CN([C@H](C)CO)S(=O)(=O)c1ccc(Cl)cc1,-4,-4,0.7
CCCC(=O)Nc1ccc2c(c1)C(=O)N(C)[C@H]1CC[C@H](CC(=O)NCc3cccc(F)c3)O[C@@H]1CO2,-1,-5,3.1
COCC(=O)N1[C@H](CO)[C@H](c2ccc(C#Cc3ccccc3F)cc2)[C@@H]1C#N,2,0,2.4

Next section
Molecule,DUX4 inh,DUX4 inh difference,DUX4 inh control
CCC(=O)NC[C@@H]1[C@@H](c2ccccc2)[C@@H](CO)N1C(=O)C1CCC1,0,4,-3.4
CCCNC(=O)N1C[C@@H](O)COC[C@@H]2O[C@H](CC(=O)N3CCCCC3)CC[C@H]21,18,21,-2.1
O=C(C[C@@H]1CC[C@@H]2[C@H](COC[C@@H](O)CN2C(=O)Nc2cccc(F)c2)O1)NCc1ccccc1Cl,-7,-5,-2.5
CO[C@@H]1CN(C)C(=O)c2cc(NC(=O)c3cnccn3)ccc2OC[C@H](C)N(CCc2ccccc2)C[C@@H]1C,-3,-8,4.9
O=C(C[C@@H]1CC[C@H]2[C@@H](COC[C@H](O)CN2C(=O)c2ccccc2F)O1)NCc1ccc(F)cc1,4,1,2.8
C[C@@H]1CN([C@@H](C)CO)C(=O)c2ccccc2-c2ccccc2CO[C@@H]1CN(C)C(=O)N[C@H](C)c1ccccc1,4,6,-1.9
N#C[C@H]1[C@H](c2ccccc2-c2cccc(F)c2)[C@@H](CO)N1C(=O)C1CC1,2,1,0.7
Cc1ccccc1S(=O)(=O)N1C[C@H](O)COC[C@H]2O[C@@H](CC(=O)N3CCOCC3)CC[C@@H]21,9,5,4.5

New compounds follow
Molecule,DUX4 inh,DUX4 inh difference,DUX4 inh control
C[C@H]1CN([C@@H](C)CO)C(=O)c2cc(C3=CCCCC3)cnc2O[C@H]1CN(C)S(=O)(=O)c1cn(C)cn1,7,6,1.0
COc1cccc(-c2ccc([C@H]3[C@@H](CO)N4CCCCN(C(=O)NC(C)C)C[C@@H]34)cc2)c1,15,0,15
O=C([C@H]1[C@H](CO)[C@H]2Cn3c(ccc(C4=CCCCC4)c3=O)[C@@H]1N2Cc1nccs1)N1CCCCC1,-6,-6,0.2
C/C=C/c1ccc([C@H]2[C@@H](CO)N(C(=O)COC)[C@H]2CNC(=O)CC)cc1,-7,-4,-3.4
N#C[C@H]1[C@H](c2ccc(C#Cc3ccc(F)cc3)cc2)[C@H](CO)N1C(=O)C1CCCC1,-3,-2,-0.5
C[C@H]1CN([C@@H](C)CO)C(=O)CCCn2cc(nn2)CO[C@H]1CN(C)C(=O)Nc1ccc2c(c1)OCO2,5,3,2.3
COc1cccc(CNC(=O)C[C@H]2C=C[C@H](NC(=O)C3CCOCC3)[C@@H](CO)O2)c1,4,0,4.2
COc1cccc(C(=O)Nc2ccc3c(c2)C(=O)N(C)[C@@H]2CC[C@@H](CC(=O)N[C@@H](C)c4ccccc4)O[C@H]2CO3)c1,-3,-3,-0.7

Other records
Molecule,DUX4 inh,DUX4 inh difference,DUX4 inh control
COc1ccc2c3c([nH]c2c1)[C@H](CO)N(C(=O)Nc1ccc(F)cc1)CC31CN(C(=O)Nc2c(C)noc2C)C1,13,-2,16
C/C=C/c1ccc2c(c1)[C@H]1[C@H](CCN1C(=O)c1ccc(F)cc1)[C@H](CO)N2,?,nt,nt
O=C(C[C@@H]1C[C@H]2c3cc(NC(=O)Cc4ccncc4)ccc3O[C@H]2[C@@H](CO)O1)NCc1ccc2c(c1)OCO2,-1,-2,0.8
CO[C@H]1CN(C)C(=O)c2cc(NC(=O)CC(F)(F)F)ccc2OC[C@@H](C)N(C(C)=O)C[C@@H]1C,9,5,4.9
CN(C)CC(=O)Nc1ccc2c(c1)[C@@H]1C[C@@H](CC(=O)NCc3ccncc3)O[C@H](CO)[C@@H]1O2,4,3,0.8
CCCN1[C@@H]2Cn3c(ccc(-c4cccc(F)c4)c3=O)[C@H]1[C@@H](C(=O)N(C)C)[C@@H]2CO,10,6,3.4
O=C(C[C@H]1CC[C@H]2[C@@H](COC[C@@H](O)CN2C(=O)Nc2ccc(F)cc2)O1)NCCCN1CCOCC1,2,-11,13
CCS(=O)(=O)N1CC(=O)N2[C@H](C1)[C@@H](c1ccc(C#Cc3cccc(F)c3)cc1)[C@@H]2CO,?,nt,nt

Carrying on:
Molecule,DUX4 inh,DUX4 inh difference,DUX4 inh control
CCCNC(=O)Nc1ccc2c(c1)OC[C@H](C)N(C(=O)C1CCOCC1)C[C@H](C)[C@@H](OC)CN(C)C2=O,6,6,-0.1
CCOC(=O)CCCCCC(=O)Nc1ccc2c(c1)C(=O)N([C@@H](C)CO)C[C@H](C)[C@H](CN(C)C(=O)Nc1ccc(C(F)(F)F)cc1)OCCCC[C@H](C)O2,4,5,-0.8
COc1ccc2c3c([nH]c2c1)[C@@H](CO)N(C(=O)C1CCCCC1)CC31CCN(Cc2nccs2)CC1,-2,-4,2.6
CO[C@H]1CC[C@H]2CCN(C)C(=O)CCCN(C)C(=O)c3cccc(C#N)c3OC[C@@H]1O2,-3,0,-3.1
O=C(C[C@@H]1CC[C@H]2NC[C@H](O)COC[C@@H]2O1)NCCc1ccncc1,2,1,1.8
Cc1nn(C)cc1NC(=O)C[C@@H]1CC[C@H]2[C@H](COc3ccc(NC(=O)NC(C)C)cc3C(=O)N2C)O1,4,1,2.8
C[C@H](O)C#Cc1ccc([C@@H]2[C@@H](CO)N3CCCCN(C(=O)c4cccc(F)c4)C[C@H]23)cc1,4,3,1.2
O=C(CN1CCOCC1)N[C@@H]1CC[C@@H](CCNS(=O)(=O)c2ccccc2F)O[C@@H]1CO,5,4,1.1

3 compounds drawn at random from those above:
Molecule,DUX4 inh,DUX4 inh difference,DUX4 inh control
Cc1nn(C)cc1NC(=O)C[C@@H]1CC[C@H]2[C@H](COc3ccc(NC(=O)NC(C)C)cc3C(=O)N2C)O1,4,1,2.8
CCCNC(=O)Nc1ccc2c(c1)OC[C@H](C)N(C(=O)C1CCOCC1)C[C@H](C)[C@@H](OC)CN(C)C2=O,6,6,-0.1
COc1ccc2c3c([nH]c2c1)[C@@H](CO)N(C(=O)C1CCCCC1)CC31CCN(Cc2nccs2)CC1,-2,-4,2.6

(cont.)
Molecule,DUX4 inh,DUX4 inh difference,DUX4 inh control
O=C(C[C@@H]1CC[C@@H]2[C@H](COC[C@@H](O)CN2C(=O)Nc2ccc(F)cc2)O1)NC1Cc2ccccc2C1,-2,0,-2.0
CCC(=O)N1[C@@H]2c3ccc(-c4ccncc4)c(=O)n3C[C@H]1[C@H](CO)[C@H]2C(=O)NC1Cc2ccccc2C1,-2,-2,0.7
Cc1noc(C)c1NC(=O)Nc1ccc2c(c1)CC(=O)N([C@@H](C)CO)C[C@@H](C)[C@H](CN(C)C(=O)NC1CCCCC1)O2,-1,-1,0.0
C[C@@H]1CN([C@H](C)CO)C(=O)CCCn2nncc2CO[C@H]1CN(C)Cc1ccc(C(=O)Nc2ccccc2N)cc1,-22*,-32*,10*
COCC(=O)N1[C@@H]2CN(C)c3ccccc3[C@@H]2[C@@H]1CO,-3,-3,0.1
COc1ccccc1S(=O)(=O)N1CC[C@@H]2[C@@H](CO)Nc3ccc(-c4ccc(F)cc4)cc3[C@@H]21,?,nt,nt
CC=Cc1ccc2n(c1=O)C[C@@H]1[C@@H](CO)[C@H](C(=O)Nc3ccc(-c4ccccc4)cc3)N(C(C)=O)[C@H]21 (mixture of isomers),2,11,-8.8
C/C=C/c1ccc([C@H]2[C@H](CO)N(C(=O)CC)[C@H]2CNC(=O)CC)cc1,-1,-3,1.7

Other compounds
Molecule,DUX4 inh,DUX4 inh difference,DUX4 inh control
CS(=O)(=O)N1[C@H](CO)[C@H](c2ccc(C#Cc3cccc(F)c3)cc2)[C@@H]1C#N,1,-2,3.2
O=C(C[C@@H]1C[C@@H]2c3cc(NC(=O)Cc4ccncc4)ccc3O[C@@H]2[C@H](CO)O1)NCc1ccccn1,1,-1,1.7
O=C(C[C@@H]1CC[C@@H]2[C@H](COC[C@@H](O)CN2C(=O)c2cnccn2)O1)NCc1ccc(Oc2ccccc2)cc1,-1,0,-1.0
O=C(C[C@H]1C[C@H]2c3cc(NC(=O)c4ccc5c(c4)OCO5)ccc3O[C@H]2[C@H](CO)O1)NCc1cccc(F)c1,-6,-5,-1.0
CN(C)CC(=O)Nc1ccc2c(c1)[C@H]1C[C@H](CC(=O)NCCc3ccccc3)O[C@@H](CO)[C@H]1O2,0,3,-2.9
O=C(C[C@H]1C[C@@H]2c3cc(NC(=O)CC4CC4)ccc3O[C@@H]2[C@@H](CO)O1)NCc1ccccn1,7,5,1.6
C[C@@H]1CCCCO[C@H](CN(C)S(C)(=O)=O)[C@H](C)CN([C@@H](C)CO)C(=O)c2cc(N(C)C)ccc2O1,2,0,1.3
CC(C)NC(=O)N[C@H]1CC[C@H](CC(=O)NC2Cc3ccccc3C2)O[C@@H]1CO,1,1,-0.1

The list goes on:
Molecule,DUX4 inh,DUX4 inh difference,DUX4 inh control
Cc1noc(C)c1NC(=O)N(C)C[C@H]1Oc2cc(C#CCN(C)C)ccc2S(=O)(=O)N([C@@H](C)CO)C[C@H]1C,-5,-4,-1.4
Cc1noc(C)c1NC(=O)N(C)C[C@@H]1Oc2c(NS(=O)(=O)c3ccc(Cl)cc3)cccc2C(=O)N([C@H](C)CO)C[C@@H]1C,-2,-3,1.1
O=C(Nc1ccc(F)cc1)Nc1ccc2c(c1)[C@@H]1C[C@@H](CC(=O)N3CCOCC3)O[C@H](CO)[C@@H]1O2,2,3,-0.9
Cc1ccc(S(=O)(=O)N[C@H]2CC[C@@H](CC(=O)NCc3ccncn3)O[C@@H]2CO)cc1,-5,-3,-1.5
N#C[C@H]1[C@H](c2ccccc2C2=CCCCC2)[C@H](CO)N1S(=O)(=O)c1ccccc1,?,nt,nt
CO[C@@H]1CN(C)C(=O)c2cc(NS(=O)(=O)c3cccc(F)c3)ccc2OC[C@H](C)N(Cc2cc(F)ccc2F)C[C@@H]1C,?,nt,nt
O=C(C[C@H]1CC[C@H](NS(=O)(=O)c2ccccc2)[C@H](CO)O1)NCc1ccc(Cl)c(Cl)c1,?,nt,nt
COc1ccc(NC(=O)N(C)C[C@H]2OCCCC[C@@H](C)Oc3ccc(NS(=O)(=O)c4cccs4)cc3C(=O)N([C@H](C)CO)C[C@H]2C)cc1,-3,-5,2.6

Screening results: PubChem, Broad Institute
